BmaI1 – BmaI1 acyl-homoserine lactone synthase inhibition – biochemical, fluorescence intensity, with counterscreen (AID 720554). 12,000 compounds, 0.4% hits. inhibition, %. BmaI1 enzyme assay, fluorescence intensity; stronger effect = higher value; test concentration not given here; a few actives read low; strong numbers were not always called active;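 active = both replicates within 2 robust z-scores of the inhibited control and a quiet counterscreen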;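 also: 0% = uninhibited enzyme and 100% = inhibited control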
BmaI1 counterscreen – further read-out of BmaI1, marked with its call; inhibition, %; measured here: counterscreen; design of the counterscreen not given here;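 first of two replicates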
* = called active by the depositor. Not all compounds are listed (hit frequency here may not be typical).

molecule | BmaI1 | BmaI1 counterscreen
CC(=O)N1CCN(CC(=O)Nc2ccc(S(=O)(=O)N(C)C)cc2)CC1 | 16 | 6
COc1cc(CN(C)Cc2cc(=O)n3ccsc3n2)ccc1OC(F)F | 12 | 14
O=C(CCCN1CCC(O)(c2ccc(Cl)cc2)CC1)c1ccc(F)cc1 | -5 | -2
N#CCC(=O)Nc1ccc(C(=O)OCC(=O)c2cc3ccccc3o2)cc1 | 22 | 10
C(=N\N1CCOCC1)/c1nc(-c2ccccc2)n2ccccc12 | 52 | 4
CC(C)(C)C(=O)CSc1nnc2sc3ccccc3n12 | 16 | 4
Nn1c(Cc2cccc3ccccc23)nnc1SCC(=O)N1CCCC1=O | 23 | 16
C(=C\c1ccccc1)/C=N/Nc1nc2ccccc2[nH]1 | 92 | 68
Cc1ccc(S(=O)(=O)NC(=O)NC(C)C2CC3CCC2C3)cc1 (centres undefined) | 2 | 4
NS(=O)(=O)c1ccc(NC(=O)COC(=O)CN2C(=O)C3CC=CCC3C2=O)cc1 (centres undefined) | 2 | -4
COc1ccc(CNC(=O)CCNc2ccc(C)cc2)cc1 | 46 | 2
CC1CN(S(=O)(=O)c2cccc(C(=O)N(C)C3CCCCC3)c2)CC(C)O1 (centres undefined) | 13 | 9
O=C1CC2(CCCC2)C(=O)N1CN1CCN(S(=O)(=O)c2ccc(F)cc2)CC1 | 4 | 11
CC(OC(=O)C1CCN(C(=O)c2ccc(Cl)cc2)CC1)C(=O)NC1CC1 (centres undefined) | 12 | 6
O=C(Cn1nnc(-c2ccc(Cl)cc2)n1)NCC(F)(F)F | -16 | -2
CC(C)CNC(=O)c1ccccc1N | 0 | 2
c1csc(C2=NCCC2)c1 | 0 | 4
Cc1cc(-c2csc(N)n2)c(C)n1Cc1ccco1 | 90 | 72
COc1ccc(NC(=O)CN(C)C(C)C(=O)N2CCCCC2)cc1 (centres undefined) | 10 | 12
O=C(O)/C=C/c1cc(C(F)(F)F)ccc1Cl | 18 | 8
CC1CCCN(C(=O)COC(=O)c2ccc(-c3cccc(C(F)(F)F)c3)o2)C1 (centres undefined) | 12 | 5
CCN(C(=O)c1ccc(S(=O)(=O)N2CCC(C)CC2)cc1)C1CCS(=O)(=O)C1 (centres undefined) | 8 | 3
CCN(CC)C(=O)[C@]1(c2ccccc2)C[C@@H]1CN | 4 | -6
CCn1c(N)c(C(=O)COC(=O)CC2Sc3ccccc3NC2=O)c(=O)[nH]c1=O (centres undefined) | 10 | -1
Cc1cc(C)cc(OCCSc2nc3ccccc3n2CCC#N)c1 | -1 | -2
Cn1c(C2Sc3ccccc3NC2=O)ccc1C1Sc2ccccc2NC1=O (centres undefined) | -11 | -4
C[C@H]1O[C@@H](O[C@H]2[C@@H](O)C[C@H](O[C@H]3[C@@H](O)C[C@H](O[C@H]4CC[C@@]5(C)[C@H](CC[C@@H]6[C@@H]5C[C@@H](O)[C@]5(C)C(C7=CC(=O)OC7)CC[C@]65O)C4)O[C@@H]3C)O[C@@H]2C)C[C@H](O)[C@@H]1O (some centres undefined) | -6 | 0
S=C(NCc1ccco1)NC1CCCc2ccccc21 (centres undefined) | -2 | 10
CCN(CC(=O)Nc1ccc2c(c1)OCCO2)C(=O)/C=C/c1ccco1 | 16 | 8
O=C(Cn1cc(C(F)(F)F)ccc1=O)NCC(F)(F)F | 8 | 8

Other compounds:
molecule | BmaI1 | BmaI1 counterscreen
O=C(NCCCN1CCCC1=O)c1ccc(Cl)c(NS(=O)(=O)c2ccc(F)cc2)c1 | 13 | 16
Cc1ccc(C)c(-n2nnnc2SCC(=O)OCC(=O)c2cc(C)n(-c3ccc4c(c3)OCO4)c2C)c1 | 14 | 6
Cc1n[nH]c(=O)c2c(NC(=O)COC(=O)CC3(Cc4nc5ccccc5s4)CCCC3)oc(C)c12 | 40 | 14
Cc1cc(=S)nc(C(C)C)[nH]1 | 104 | 66
O=c1c2c3c(sc2nc2sc(-c4ccncc4)nn12)CCCC3 | 16 | 10
Cc1noc(C)c1CSc1nc2cc(C(=O)O)ccc2c(=O)n1Cc1ccccc1 | 18 | 10
CSc1ccccc1C(=O)OCC(=O)Nc1ccc(S(N)(=O)=O)cc1 | 3 | 10
CC12CCC(=O)N1C(C(=O)OCc1cc(=O)n3ccsc3n1)CS2 (centres undefined) | 0 | -4
CC1COc2c(N3CCN(C)CC3)c(F)cc3c(=O)c(C(=O)OCc4ccccn4)cn1c23 (centres undefined) | 16 | -4
CSc1ccc(/C=N/OCc2ncc(-c3ccccc3)o2)cc1 | 24 | 0
Cn1ccnc1C(=O)c1cc(Sc2nnnn2-c2ccccc2)nc2ccccc12 | 12 | 4
Cc1ccc(C(=O)OCC(=O)NC2CC2)cc1S(=O)(=O)N1CCOCC1 | 10 | 14
CCn1c(SCC2CCCCO2)nnc1-c1cccs1 (centres undefined) | 8 | -1
COC(=O)Cc1cc(=O)[nH]c(SCC2CCCCO2)n1 (centres undefined) | 10 | 15
Cc1ccc(NC(=O)NNc2ccc(S(=O)(=O)N3CCCCC3)cn2)cc1 | -35 | -48
CC(=O)Nc1ccc(C2Nc3ccccc3-c3nc4ccccc4n32)cc1 (centres undefined) | 3 | 4
CCCN(Cc1nnc(-c2ccco2)o1)C(=O)c1ccccc1SCC(=O)Nc1ccc(F)cc1 | 18 | 4
CN1CCCCC/C1=N/c1nc(-c2ccccc2)cs1 | 18 | 12
CCOC(=O)c1ccoc1CN1CCN(C/C=C/c2ccccc2)CC1 | 2 | 10
CCCn1c(NC(=O)c2ccccc2)nc2ccccc21 | 21 | 12
C=CCn1c(SCC(=O)c2ccc(CNC(C)=O)s2)nnc1C1CCCCC1 | 24 | 10
CCc1cc(N2CCN(C(C)=O)CC2)n2c(nc3ccccc32)c1C#N | 14 | 7
CN(C)C(CNC(=S)Nc1ccccc1Cl)c1ccco1 (centres undefined) | -2 | 0
CC(Sc1nc2cc(Cl)ccc2n1Cc1ccccc1)C(=O)NC(N)=O (centres undefined) | 8 | -6
O=C(CNc1ccc(S(=O)(=O)N2CCCC2)cc1)N1CCc2ccccc21 | 15 | 12
O=C1c2ccccc2C(=O)c2c1oc1c3c(ccc21)OCN(CCCn1ccnc1)C3 | 26 | 12
CCn1c(C)nc2cc(-c3nnc(Nc4ccccc4)o3)ccc21 | 20 | 21
CC(=O)OC1CC(C(=O)O)N(S(=O)(=O)c2ccc(F)cc2)C1 (centres undefined) | 24 | 8
CN(CCOc1ccccc1)CC(=O)Nc1ccc(Br)cc1F | 10 | 12
Nn1c(Cc2ccccc2F)nnc1SCc1cc(=O)oc2cc(O)c(O)cc12 | 97 | 40

Arranged by formula weight (low to high): some entries from above
molecule | BmaI1 | BmaI1 counterscreen
CC(=O)OC1CC(C(=O)O)N(S(=O)(=O)c2ccc(F)cc2)C1 (centres undefined) | 24 | 8
CCOC(=O)c1ccoc1CN1CCN(C/C=C/c2ccccc2)CC1 | 2 | 10
N#CCC(=O)Nc1ccc(C(=O)OCC(=O)c2cc3ccccc3o2)cc1 | 22 | 10

Next section
molecule | BmaI1 | BmaI1 counterscreen
O=C(c1ccco1)N(C(=O)c1ccco1)c1nc2ccccc2nc1N1CCOCC1 | 9 | 4
O=C(Cc1coc2cc3c(cc12)CCC3)OCCN1CCCC1=O | 10 | 0
CC(Sc1cccc[n+]1[O-])C(=O)N1CCN(C(=O)c2ccco2)CC1 (centres undefined) | 6 | 2
O=C(N/N=C/c1ccco1)c1ccc(CSc2nc3ccccc3s2)cc1 | 18 | 2
COc1ccc(OC)c(NC(=O)CNc2cc(OC)c(Cl)cc2OC)c1 | 50 | 19
CCCN(Cc1nnc(-c2ccco2)o1)C(=O)c1ccc2c(c1)CC(c1ccccc1)OC2=O (centres undefined) | 11 | 16
CCCN1CCN(C(=O)c2ccccc2CSc2ncn[nH]2)CC1 | 5 | 2
CCCn1nnc(NC(=O)/C=C/c2ccccc2)n1 | 8 | 8
CC(Sc1nncn1-c1ccccc1)C(=O)N1CCc2ccccc21 (centres undefined) | 20 | 2
Cc1ccn2c(=O)cc(COc3ccc4c(c3)OCO4)nc2c1 | 2 | 4
CC1CCCCC1NC(=O)c1ccc(F)cc1 (centres undefined) | 5 | 1
Cc1noc(C)c1C(=O)N(CC(=O)Nc1ccccc1Br)Cc1ccco1 | 6 | -2
Cc1cc(C)c(CN)c(=O)[nH]1 | 8 | 10
O=c1cc(-c2c(F)c(F)c(F)c(F)c2F)oc2c(F)c(F)c(F)c(F)c12 | 14 | 6
CCOC(=O)c1ccoc1COC(=O)/C=C/c1ccc(SC)cc1 | 17 | 14
Cc1oc(-c2ccccc2)nc1C(=O)OCc1cc(=O)n2ccsc2n1 | 10 | 4
Nc1nc(SCC(=O)c2cccs2)n[nH]1 | 30 | 48
CCc1sc(-c2nnc(CSc3nnc(-c4ccncc4)n3C)o2)cc1C | 18 | -2
O=C(OCc1nc2ccccc2c(=O)[nH]1)c1ccc(S(=O)(=O)N2CCCC2)cc1 | -6 | -12
S=C(NCC1CCCO1)Nc1ccc(N2CCCCC2)cc1 (centres undefined) | 68 | 19
CC(Sc1nc2ccccc2n1CCC#N)C(=O)N1CCCC1 (centres undefined) | -6 | -7
O=C(CSc1nncs1)Nc1ccccc1 | -32 | -5
Cc1cc(C)c(C(N)=O)c(SCC(=O)N2CCc3ccccc3C2)n1 | 42 | 10
COc1ccc(S(N)(=O)=O)cc1C(=O)NCC1CCCO1 (centres undefined) | 14 | 13
N#Cc1ccc(Cl)cc1NC(=O)CSc1nnc(-c2c[nH]c3ccccc23)n1CC1CCCO1 (centres undefined) | 26 | 6
Cc1noc(C)c1C(=O)OCC(=O)N1CCCCC1C (centres undefined) | 13 | 17
O=c1c2ccc(-c3n[nH]c(=S)o3)cc2nc2n1CCCCC2 | 36 | 7
Cn1c(SCCSc2cccc(C(F)(F)F)c2)nnc1-c1ccco1 | 36 | 2
COc1ccc(C2CC(c3cccs3)=NN2C(=O)Cn2nnc(-c3cccnc3)n2)cc1OC (centres undefined) | 16 | 12
CC1(CCc2ccccc2)NC(=O)N(CN2CCN(c3ccccc3F)CC2)C1=O (centres undefined) | 10 | 11

Next part
Order of results: BmaI1 | BmaI1 counterscreen
- COc1ccccc1N1CCN(Cc2cc(=O)oc3cc(C)c(Cl)cc23)CC1
→ 7 | 4
- Cc1cc(C(=O)COC(=O)c2ccc(O)cc2)c(C)n1CC1CCCO1 (centres undefined)
→ 16 | 5
- O=C1Cc2ccccc2C(=O)N1c1cccc(Cl)c1
→ 50 | 19
- Oc1ccc2c3c1O[C@H]1c4[nH]c5ccccc5c4C[C@@]4(O)C(C2)N(CC2CC2)CC[C@]314
→ 41 | 2
- CCOC(=O)c1oc2ccc(Br)cc2c1COC(=O)CCn1c(C)csc1=O
→ 4 | 5
- CC(=O)Nc1ccc(NC(=O)C(C)OC(=O)c2c3c(nc4ccccc24)CCN(C)C3)cc1 (centres undefined)
→ 11 | -3
- OC1CCCN(CC(O)COc2ccc(-c3ccccc3)cc2)C1 (centres undefined)
→ 15 | 18
- COc1ccc(Cn2c3nc(C#N)c(C#N)nc3c3c(=O)[nH]c(C)nc32)cc1
→ 24 | 5
- CCOC(=O)/C=C1\SCC(=O)N1CC(O)c1ccccc1 (centres undefined)
→ -2 | 5
- Cc1c(C(=O)Nc2cc(Cl)ccc2-n2cncn2)[nH]c2c1C(=O)CC(C)(C)C2
→ 21 | 6

Grouped by structure: those above containing a COOH group
Order of results: BmaI1 | BmaI1 counterscreen
- O=C(O)/C=C/c1cc(C(F)(F)F)ccc1Cl
→ 18 | 8
- Cc1noc(C)c1CSc1nc2cc(C(=O)O)ccc2c(=O)n1Cc1ccccc1
→ 18 | 10
- CC(=O)OC1CC(C(=O)O)N(S(=O)(=O)c2ccc(F)cc2)C1 (centres undefined)
→ 24 | 8

Other compounds follow.
Order of results: BmaI1 | BmaI1 counterscreen
- CN(C)S(=O)(=O)c1ccc(=O)n(CC(=O)c2c[nH]c3ccccc23)c1
→ 0 | -2
- CN(CC(=O)N1CCOCC1)c1ncnc2scc(-c3ccc(F)cc3)c12
→ 12 | 11
- COc1cccc(NC(=O)C(Sc2nnc(-c3ccccc3)o2)c2ccccc2)c1 (centres undefined)
→ 37 | 10
- Cc1sc2ncnc(Sc3nnc(CN4CCCC4=O)o3)c2c1C
→ 24 | 8
- CC(C)NC(=O)CSc1nnc(SCC(=O)NC(C)C)s1
→ 14 | 4
- CCN(CC)S(=O)(=O)c1ccc(O)c(C(=O)OCC(=O)N2c3ccccc3CC2C)c1 (centres undefined)
→ 16 | 17
- CCN(C(=O)CSc1ccc2ccccc2n1)C1CCS(=O)(=O)C1 (centres undefined)
→ -4 | 0
- N#Cc1ccc(COC(=O)CCc2nc(N)nc(Nc3ccccc3)n2)cc1
→ 15 | 0
- CCOC(=O)C1=C(C)NC(C)=C(C(=O)OC)C1c1cccc(Cl)c1Cl (centres undefined)
→ -2 | 1
- CCC(C)c1ccccc1NC(=O)COc1ccc2c(c1)OCO2 (centres undefined)
→ 13 | 1

(listing goes on)
Order of results: BmaI1 | BmaI1 counterscreen
- C=CCNC(=O)CSc1nncn1-c1ccccc1
→ 11 | -1
- CC(OC(=O)CSc1nc2ccccc2o1)C(=O)c1ccc(OC(F)F)cc1 (centres undefined)
→ 12 | 7
- Cc1cc(C(=O)COC(=O)c2ccccc2S(C)=O)c(C)n1CCC1=CCCCC1 (centres undefined)
→ 21 | 2
- Cc1noc(C)c1CSc1ncccc1C(=O)NCCc1c[nH]c2ccccc12
→ 1 | -2
- O=C(c1ccc(-n2cnnn2)cc1)N1CCN(C(c2ccccc2)c2ccccc2)CC1
→ -16 | 2
- NC(=S)N/N=C1/C2C3CC4C1C1C2CC3C41 (centres undefined)
→ 8 | 8
- CCOc1ccc(CN(C)CC(O)COCC2CCCO2)cc1 (centres undefined)
→ 3 | 6
- C=CCN1C(=O)c2ccc(C(=O)OCc3cn4ccccc4n3)cc2C1=O
→ 7 | 1
- Nc1nc2c(ncn2CCC(CO)CO)c(=O)[nH]1
→ 4 | 6

An excerpt of these results, as labelled records.
> C=CCNC(=O)CSc1nncn1-c1ccccc1
  BmaI1 = 11 | BmaI1 counterscreen = -1
> CC(OC(=O)CSc1nc2ccccc2o1)C(=O)c1ccc(OC(F)F)cc1 (centres undefined)
  BmaI1 = 12 | BmaI1 counterscreen = 7
